Vaccinia inh – blocks a specific stage of Vaccinia orthopoxvirus infection, primary screen, cell-based, single point | Vaccinia-infected cells, mCherry/Venus stage reporter fluorescence; stronger effect = lower value; some inactives read as strong as hits | activity change (mCherry), % (no concentration beside the values) | hit rate 0.01% among 89,000 | AID 1053133, 2014;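 active = mCherry past -33% and 40 or more points under the early reporter, replicates agreeing; inconclusive = past -33% without that gap or agreement; tested in A549 cells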;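 note: scaled between vehicle wells and reference inhibitor wells; 23 nL library stock went into each well; one replicate is shown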
Vaccinia inh Venus – also measured in Vaccinia inh; calls as there; activity change (Venus), %; measured here: Venus reporter, other viral stage;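 negative = less Venus signal; first of two replicates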
Numbers without * were called inactive; ? = inconclusive; nt = no result given. Only part of the results is shown; rates above refer to the full screens.

Start of the data: the first four entries (preview)
SMILES	Vaccinia inh	Vaccinia inh Venus
COc1cccc(NC(=O)N[C@@H]2C=C[C@H](CC(=O)NCc3ccccn3)O[C@H]2CO)c1	-2.8	-2.1
O=C(C[C@@H]1CC[C@H]2[C@@H](COC[C@@H](O)CN2Cc2ccc(Oc3ccccc3)cc2)O1)N1CCCCC1	?	nt
CCC(=O)N(C)C[C@H]1Oc2cc(C#CCOC)ccc2S(=O)(=O)N([C@H](C)CO)C[C@@H]1C	12.2	-1.2
CCCNC(=O)[C@@H]1[C@@H](CO)[C@@H]2Cn3c(ccc(C4=CCCCC4)c3=O)[C@H]1N2CC	14.5	9.4

The whole of this part, from the first entry:
SMILES	Vaccinia inh	Vaccinia inh Venus
COc1cccc(NC(=O)N[C@@H]2C=C[C@H](CC(=O)NCc3ccccn3)O[C@H]2CO)c1	-2.8	-2.1
O=C(C[C@@H]1CC[C@H]2[C@@H](COC[C@@H](O)CN2Cc2ccc(Oc3ccccc3)cc2)O1)N1CCCCC1	?	nt
CCC(=O)N(C)C[C@H]1Oc2cc(C#CCOC)ccc2S(=O)(=O)N([C@H](C)CO)C[C@@H]1C	12.2	-1.2
CCCNC(=O)[C@@H]1[C@@H](CO)[C@@H]2Cn3c(ccc(C4=CCCCC4)c3=O)[C@H]1N2CC	14.5	9.4
COCC#Cc1cnc2c(c1)C(=O)N([C@@H](C)CO)C[C@H](C)[C@H](CN(C)C(=O)Nc1cccc(F)c1)O2	6.7	2.4
CNC[C@@H]1OCCCC[C@@H](C)Oc2ccc(NC(=O)c3ccccc3)cc2C(=O)N([C@H](C)CO)C[C@H]1C	2.3	-6.5
C/C=C/c1ccc([C@@H]2[C@H](CO)N(C(=O)C3CCC3)C23CN(S(=O)(=O)CC)C3)cc1	6.2	10.0
C[C@@H]1CN([C@@H](C)CO)S(=O)(=O)c2ccc(-c3cccc(C(=O)N(C)C)c3)cc2O[C@H]1CN(C)Cc1ccc2c(c1)OCO2	-9.3	-4.7
C[C@@H]1CCCCO[C@H](CN(C)C(=O)Nc2cccc3ccccc23)[C@@H](C)CN([C@@H](C)CO)C(=O)c2cc(NC(=O)c3ccncc3)ccc2O1	4.0	9.9
CCC(=O)N1C[C@@H]2[C@H](c3ccccc31)[C@H](CO)N2Cc1ccc(F)cc1	-2.7	-0.5
CNC[C@H]1Oc2ncc(C#CCC3CCCC3)cc2C(=O)N([C@H](C)CO)C[C@H]1C	-19.5	-16.8
Cc1noc(C)c1NC(=O)Nc1ccc2c(c1)C(=O)N([C@H](C)CO)C[C@@H](C)[C@H](CN(C)C(=O)Nc1ccc(C(F)(F)F)cc1)OCCCC[C@@H](C)O2	-27.4	-23.2
C[C@@H]1CCCCO[C@H](CN(C)C(=O)c2ccccc2)[C@H](C)CN([C@@H](C)CO)C(=O)c2cc(NS(C)(=O)=O)ccc2O1	23.5	8.3
COc1cccc(NC(=O)Nc2ccc3c(c2)C(=O)N(C)C[C@@H](OC)[C@H](C)CN[C@H](C)CO3)c1	-13.7	-1.3
CN1C(=O)c2cc(NC(=O)c3ccccc3Cl)ccc2OC[C@H]2O[C@H](CC(=O)O)CC[C@@H]21	2.1	-4.5
C/C=C/c1ccc([C@@H]2[C@@H](CO)N(Cc3ccccn3)[C@H]2CNC(C)=O)cc1	8.5	13.7
O=C(C1CC1)N1CC(=O)N2[C@@H](CO)[C@@H](c3ccc(-c4cccnc4)cc3)[C@@H]2C1	1.1	4.2
COc1ccccc1NC(=O)N1C[C@@H](O)COC[C@@H]2O[C@@H](CC(=O)NCc3ccccc3)CC[C@H]21	-10.2	-15.3
COCC#Cc1ccc2c(c1)O[C@H](CN(C)C(=O)c1ccccc1)[C@H](C)CN([C@@H](C)CO)S2(=O)=O	5.3	-8.3
C[C@@H]1CN([C@H](C)CO)C(=O)c2ccccc2-c2ccccc2CO[C@@H]1CN(C)C(=O)Nc1ccc(F)cc1	14.7	6.4
C[C@@H]1CN([C@@H](C)CO)C(=O)Cc2cc(NC(=O)Nc3ccc(C(F)(F)F)cc3)ccc2O[C@@H]1CN(C)S(=O)(=O)c1cn(C)cn1	-7.4	-7.9
C[C@@H]1CN([C@@H](C)CO)C(=O)c2cc(NC(=O)Nc3ccccc3)ccc2O[C@@H]1CN(C)C(=O)Nc1cccc2ccccc12	-0.3	11.7
O=C(Nc1cccc(F)c1)N1CC(=O)N2[C@H](C1)[C@@H](c1ccc(-c3ccc(F)cc3)cc1)[C@@H]2CO	?	nt
C[C@@H]1CN([C@@H](C)CO)C(=O)c2cccc(NS(C)(=O)=O)c2O[C@H]1CN(C)Cc1ccc(Cl)c(Cl)c1	9.5	0.6
COc1ccc(S(=O)(=O)N(C)C[C@@H]2Oc3ncc(C#Cc4cccc(F)c4)cc3C(=O)N([C@H](C)CO)C[C@@H]2C)cc1	?	nt
(cont.)
SMILES	Vaccinia inh	Vaccinia inh Venus
C[C@H]1CN([C@@H](C)CO)C(=O)c2cccc(NS(=O)(=O)c3cn(C)cn3)c2O[C@H]1CN(C)S(=O)(=O)c1ccc(Cl)cc1	20.8	9.4
C[C@@H]1CCCCO[C@H](CN(C)Cc2ccc(C(=O)O)cc2)[C@H](C)CN([C@@H](C)CO)C(=O)c2cc(NC(=O)CCCN(C)C)ccc2O1	26.8	8.8
CNC[C@@H]1OCCCC[C@H](C)Oc2ccc(NC(=O)Nc3ccc(F)cc3)cc2C(=O)N([C@@H](C)CO)C[C@@H]1C	-1.5	5.2
Cc1ccc(S(=O)(=O)N[C@H]2C=C[C@H](CC(=O)NCCN3CCCCC3)O[C@@H]2CO)cc1	4.6	4.6
CC(C)NC(=O)N[C@@H]1CC[C@H](CC(=O)NCCN2CCCC2)O[C@H]1CO	12.8	16.0
Cc1ccc(S(=O)(=O)Nc2ccc3c(c2)C(=O)N([C@@H](C)CO)C[C@@H](C)[C@H](CN(C)C(=O)NC(C)C)OCCCC[C@@H](C)O3)cc1	-4.7	-9.6
CC(C)NC(=O)Nc1ccc2c(c1)CC(=O)N([C@H](C)CO)C[C@@H](C)[C@H](CN(C)Cc1ccc(C(=O)O)cc1)O2	29.1	18.6
CCC(=O)Nc1ccc2c(c1)OC[C@H](C)N(Cc1nccs1)C[C@@H](C)[C@H](OC)CN(C)C2=O	-3.1	-0.8
C[C@@H]1CN([C@@H](C)CO)C(=O)c2cc(NC(=O)Cn3cnnn3)ccc2O[C@@H]1CN(C)C(=O)Nc1cccc2ccccc12	-9.7	-9.9
C[C@H](NC(=O)[C@H]1[C@H](CO)[C@H]2Cn3c(ccc(-c4ccccc4)c3=O)[C@@H]1N2C)c1ccccc1	-3.9	1.7
C[C@H]1CN([C@@H](C)CO)C(=O)c2cccc(NS(=O)(=O)c3ccccc3)c2O[C@@H]1CN(C)Cc1ccc(C(=O)O)cc1	12.9	12.0
CCCNC(=O)C[C@@H]1CC[C@@H]2[C@@H](COc3ccc(NC(=O)C4CCOCC4)cc3C(=O)N2C)O1	6.0	6.2
C[C@@H]1CN([C@H](C)CO)C(=O)Cc2cc(NC(=O)Nc3cccc4ccccc34)ccc2O[C@H]1CN(C)C	9.7	0.0
C/C=C/c1ccc([C@H]2[C@@H](CO)N(C(=O)CN(C)C)[C@H]2CNC(=O)CC)cc1	1.3	3.3
C/C=C/c1ccc([C@H]2[C@@H](CO)N(C(=O)c3cnccn3)C23CN(C(=O)CC)C3)cc1	6.6	1.7
COCC(=O)N1CC[C@H]2[C@@H]1c1cc(-c3cccc(F)c3)ccc1N(C)[C@H]2CO	11.2	-2.9
C[C@@H]1CN([C@H](C)CO)C(=O)c2cccc(NC(=O)Nc3ccc(C(F)(F)F)cc3)c2O[C@H]1CN(C)Cc1ccncc1	-1.1	-5.2
COc1ccccc1C#Cc1ccc([C@@H]2[C@H](CO)N3CCCCN(CCC(F)(F)F)C[C@@H]23)cc1	?	nt
CC(C)NC(=O)Nc1ccc2c(c1)C(=O)N([C@H](C)CO)C[C@@H](C)[C@@H](CN(C)CC1CCCCC1)OCCCC[C@H](C)O2	11.9	0.0
C[C@@H]1CN([C@@H](C)CO)C(=O)c2cc(C3=CCCC3)cnc2O[C@H]1CN(C)C(=O)C1CCCCC1	7.0	-0.3
CO[C@H]1CN(C)C(=O)c2cc(NS(=O)(=O)c3ccccc3C)ccc2OC[C@@H](C)NC[C@H]1C	2.9	0.2
COCCNC(=O)C[C@H]1CC[C@@H]2[C@H](COC[C@H](O)CN2C(=O)Nc2ccccc2OC)O1	5.0	7.1
O=C(C1CCOCC1)N1CC(=O)N2[C@H](CO)[C@@H](c3ccc(-c4ccccc4F)cc3)[C@@H]2C1	-2.6	0.2
COc1ccc(S(=O)(=O)Nc2ccc3c(c2)C(=O)N([C@H](C)CO)C[C@H](C)[C@H](CN(C)S(=O)(=O)c2cn(C)cn2)OCCCC[C@H](C)O3)cc1	25.8	14.4
COCC(=O)Nc1ccc2c(c1)OC[C@@H](C)N(CCc1ccccc1)C[C@@H](C)[C@H](OC)CN(C)C2=O	-2.0	-8.2
Further records follow.
SMILES	Vaccinia inh	Vaccinia inh Venus
C[C@@H](O)C#Cc1ccc([C@@H]2[C@@H](CO)N3CCCCN(S(=O)(=O)c4ccccc4)C[C@@H]23)cc1	22.5	10.7
CCCNC(=O)N(C)C[C@H]1Oc2cc(C3=CCCC3)ccc2S(=O)(=O)N([C@H](C)CO)C[C@H]1C	19.5	5.9
CN(C)C(=O)c1cccc(-c2ccc([C@@H]3[C@@H](CO)N4CCCCN(C(=O)C5CCC5)C[C@@H]34)cc2)c1	0.6	-1.1
CO[C@H]1CN(C)C(=O)c2cc(NC(=O)NC(C)C)ccc2OC[C@H](C)N(Cc2ccccc2)C[C@@H]1C	-34.5	-14.1
Cc1ccc(S(=O)(=O)N(C)C[C@@H]2Oc3c(NC(=O)C4CCOCC4)cccc3C(=O)N([C@@H](C)CO)C[C@H]2C)cc1	4.1	1.7
C[C@@H]1CCCCO[C@@H](CN(C)CC2CCCCC2)[C@H](C)CN([C@H](C)CO)C(=O)c2cc(NC(=O)c3ccccc3)ccc2O1	?	nt
Cc1ccc(S(=O)(=O)N(C)C[C@@H]2Oc3ccc(NC(=O)Nc4ccc5c(c4)OCO5)cc3CC(=O)N([C@H](C)CO)C[C@@H]2C)cc1	?	nt
COc1ccc(-c2ccc3c(c2)O[C@H](CN(C)C(=O)c2ccccc2F)[C@H](C)CN([C@@H](C)CO)S3(=O)=O)cc1	-19.9	-14.1
Cc1noc(C)c1NC(=O)N(C)C[C@@H]1Oc2ccc(NC(=O)Nc3ccccc3)cc2C(=O)N([C@@H](C)CO)C[C@H]1C	9.3	7.0
O=C(C[C@@H]1CC[C@@H]2[C@H](COC[C@H](O)CN2S(=O)(=O)c2ccccc2)O1)NCC1CCCCC1	-5.2	-5.8
C[C@H](CO)N1C[C@H](C)[C@H](CN(C)S(=O)(=O)c2ccc(Cl)cc2)Oc2c(NC(=O)Nc3ccc(C(F)(F)F)cc3)cccc2C1=O	-7.1	-13.7
O=C(C[C@@H]1CC[C@@H](NC(=O)NC2CCCC2)[C@H](CO)O1)NCc1ccc(F)cc1	-0.8	0.7
COc1ccccc1NC(=O)N[C@H]1CC[C@H](CC(=O)NCc2ccc(Cl)c(Cl)c2)O[C@@H]1CO	2.8	2.4
COc1cccc(C(=O)N2C[C@@H]3[C@H](c4ccccc42)[C@H](CO)N3C(=O)c2cccc(F)c2)c1	7.3	6.4
C[C@@H]1CN([C@H](C)CO)C(=O)c2cccc(NC(=O)c3ccncc3)c2O[C@H]1CN(C)CC1CC1	1.0	16.2
C[C@H](CO)N1C[C@H](C)[C@@H](CN(C)C(=O)CCCN(C)C)OCCCC[C@H](C)Oc2ccc(NC(=O)c3ccccc3)cc2C1=O	-1.2	18.9
Cc1noc(C)c1S(=O)(=O)Nc1ccc2c(c1)C(=O)N([C@@H](C)CO)C[C@H](C)[C@@H](CN(C)Cc1ccc(Oc3ccccc3)cc1)O2	-5.8	-7.2
COc1cccc(S(=O)(=O)Nc2ccc3c(c2)[C@H]2C[C@H](CC(=O)N4CCCCC4)O[C@H](CO)[C@H]2O3)c1	8.2	12.3
Cc1noc(C)c1NC(=O)Nc1ccc2c(c1)C(=O)N([C@@H](C)CO)C[C@H](C)[C@@H](CN(C)S(C)(=O)=O)OCCCC[C@@H](C)O2	4.8	2.2
Cc1cccc(S(=O)(=O)N2C[C@@H](O)COC[C@H]3O[C@H](CC(=O)N4CCN(C)CC4)CC[C@@H]32)c1	7.6	18.1
CC(C)CC#Cc1cnc2c(c1)C(=O)N([C@H](C)CO)C[C@H](C)[C@H](CN(C)C(=O)CCN1CCCCC1)O2	-30.5	-17.8
OC[C@H]1[C@H](c2ccc(C#Cc3ccccc3)cc2)[C@H]2CN(CC3CCOCC3)CCCCN21	-9.6	-8.7
C[C@@H](NC(=O)[C@@H]1[C@@H](CO)[C@@H]2Cn3c(cccc3=O)[C@@H]2N1C(=O)C1CC1)c1ccccc1	3.1	7.5
CO[C@H]1CN(C)C(=O)c2cc(C#N)ccc2OC[C@@H]2O[C@H](CC[C@H]2OC)CCN(C)C(=O)[C@@H]1C	9.1	-3.9
CCNC(=O)C[C@@H]1CC[C@H]2[C@@H](COc3ccc(NC(=O)Nc4c(C)noc4C)cc3C(=O)N2C)O1	3.9	-2.3
C[C@H]1CN([C@@H](C)CO)S(=O)(=O)c2ccc(C#CC3CC3)cc2O[C@@H]1CN(C)C(=O)C1CC1	1.1	-14.2
O=S(=O)(N[C@@H]1CC[C@@H](CCn2cc(-c3ccccc3F)nn2)O[C@@H]1CO)c1ccc(F)cc1	-12.2	-1.5
CCCC(=O)Nc1ccc2c(c1)OC[C@H](C)N(Cc1cncnc1)C[C@@H](C)[C@H](OC)CN(C)C2=O	2.9	2.1

By substructure: the compounds so far containing two or more sulfur atoms (2)
SMILES	Vaccinia inh	Vaccinia inh Venus
C[C@H]1CN([C@@H](C)CO)C(=O)c2cccc(NS(=O)(=O)c3cn(C)cn3)c2O[C@H]1CN(C)S(=O)(=O)c1ccc(Cl)cc1	20.8	9.4
COc1ccc(S(=O)(=O)Nc2ccc3c(c2)C(=O)N([C@H](C)CO)C[C@H](C)[C@H](CN(C)S(=O)(=O)c2cn(C)cn2)OCCCC[C@H](C)O3)cc1	25.8	14.4
